E coli growth: inhibitors of Escherichia coli growth. 0.21% of 330,000 active. OD600 absorbance (test concentration not listed). OD600, 23 h; stronger effect = lower value. AID 1053175;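 active = OD600 absorbance below the run mean of sample wells minus 3.6 SD, in any replicate, cut at about 0.56 in these data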;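 note: stock transfer was 300 nL into about 60 µL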
ALR H2O2 inh: human ALR oxidase inhibition via reduced H2O2 | purified ALR, DTT oxidation, H2O2 HRP-luminol luminescence | inhibition, % (concentration not given with the values) | 3.8% of 290,000 active | AID 485317;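 active = mean and each replicate at 75% or more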;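 note: stock transfer was 7.5 nL into about 7.5 µL; 0% = neutral wells and 100% = wells with inactivated enzyme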
B2AR ag: agonists of human beta-2 adrenergic receptor inducing internalization. P07550. Am2.2-beta2AR cells, FAP receptor internalization, flow cytometry; reference of the scale not given here. response, % (test concentration not listed). 0.43% of 340,000 active. AID 504454;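 active = response above a set limit, near 3 SD of response in nonfluorescent compounds, cut at about 42% in these data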;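 note: stock transfer was 100 nL into about 11 µL; a reference agonist was the positive control; negative values mostly stem from fluorescent compounds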
Target sequence (P07550 whole entry, looked up): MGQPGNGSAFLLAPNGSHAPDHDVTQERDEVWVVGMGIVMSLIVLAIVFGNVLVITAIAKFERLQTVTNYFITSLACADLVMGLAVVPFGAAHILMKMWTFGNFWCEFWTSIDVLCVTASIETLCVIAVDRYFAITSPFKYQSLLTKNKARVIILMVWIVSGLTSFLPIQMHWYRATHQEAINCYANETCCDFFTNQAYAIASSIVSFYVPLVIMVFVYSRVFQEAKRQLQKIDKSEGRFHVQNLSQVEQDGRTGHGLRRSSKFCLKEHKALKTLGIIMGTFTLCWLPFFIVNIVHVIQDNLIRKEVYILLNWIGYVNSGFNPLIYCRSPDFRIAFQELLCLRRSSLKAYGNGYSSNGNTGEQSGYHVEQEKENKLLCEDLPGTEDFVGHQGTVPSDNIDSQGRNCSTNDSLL
HNF4A DNA FP: change in binding of human HNF4 alpha to DNA | HNF4a-FITC DNA binding, fluorescence polarization, 1 h | P41235 | AID 1224865 | activity change, % at 10 µM | 0.3% of 360,000 active; in the data active = activity change above about 30%, passing the limit was not always enough;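 note: controls were the assay level and a saturating level of protein; the project sought stronger binding though the title names inhibitors; some compounds called inactive have numbers as strong as hits; positive values seem to mean higher polarization but the record does not say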
Target sequence (P41235 whole entry, looked up): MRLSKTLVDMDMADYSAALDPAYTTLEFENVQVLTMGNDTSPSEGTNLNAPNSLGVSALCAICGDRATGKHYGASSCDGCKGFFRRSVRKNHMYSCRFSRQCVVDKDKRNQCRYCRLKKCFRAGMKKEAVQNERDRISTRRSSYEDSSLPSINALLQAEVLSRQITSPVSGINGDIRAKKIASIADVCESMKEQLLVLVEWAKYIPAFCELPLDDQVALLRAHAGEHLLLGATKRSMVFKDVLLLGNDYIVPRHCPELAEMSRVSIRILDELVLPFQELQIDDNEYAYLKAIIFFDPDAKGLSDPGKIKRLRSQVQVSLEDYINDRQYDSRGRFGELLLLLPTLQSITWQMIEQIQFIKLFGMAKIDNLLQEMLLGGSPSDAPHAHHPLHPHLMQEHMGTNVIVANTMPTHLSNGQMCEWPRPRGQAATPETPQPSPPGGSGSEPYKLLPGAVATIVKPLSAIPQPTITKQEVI
rRNA inh HTS: inhibits bacterial ribosomal RNA function over humanized ribosomes; AID 720706; GFP signal change (wild-type ribosome), % (no concentration beside the values); 1.6% of 350,000 active; E. coli WT GFP vs humanized-ribosome RFP mutants, fluorescence, 24 h; stronger effect = lower value; DMSO median 0, no signal -100;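 active = significant combined selectivity score with lowered wild-type GFP, culture density cut under 30%, mutant RFP and density less affected; inactive = any of these conditions unmet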; note: one replicate is shown; some compounds called inactive have numbers as strong as hits
FGF22 binding: shifts melting point of recombinant human FGF22; calls only at 9.99 µM; Q9HCT0; recombinant FGF22 thermal shift, SYPRO orange fluorescence; percent of sucrose octasulfate shift, DMSO zero; 1.5% of 340,000 active;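 active = melting point raised past a set limit in the mean and every replicate; three in four hits are not shown here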
Target sequence (Q9HCT0 whole entry, looked up): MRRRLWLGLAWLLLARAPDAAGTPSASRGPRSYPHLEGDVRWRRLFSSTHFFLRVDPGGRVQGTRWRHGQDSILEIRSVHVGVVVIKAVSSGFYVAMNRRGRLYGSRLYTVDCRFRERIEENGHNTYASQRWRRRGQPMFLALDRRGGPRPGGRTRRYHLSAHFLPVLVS
UCH37 DUB inh: human UCH37 deubiquitinating enzyme inhibition; inhibition, % (no concentration beside the values); purified proteasome/UCH37, Ub-AMC cleavage fluorescence; AID 588478; 0.33% of 330,000 active;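 active = mean of two replicates above 20%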;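 note: 0% = compound-free wells with enzyme and 100% = wells lacking proteasome; stock transfer was 100 nL into about 20 µL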
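Test system – human UCH37 enzyme supplied as purified proteasome complex · Incubation – 30 min preincubation with enzyme, 25 min cleavage at room temperature · Detection – AMC fluorescence from Ub-AMC cleavage, excitation 355 nm, emission 460 nm · Benchmarks – no-proteasome wells (full inhibition) and compound-free wells (no inhibition)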
rRNA inh HTS OD600: second read-out of rRNA inh HTS, no call of its own (marks repeat the call); OD600 change, %; measured here: OD600 growth;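 optical density of the mix in the first replicate; 0 = DMSO median and -100 = no signal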
rRNA inh HTS RFP: also measured in rRNA inh HTS; calls as there; RFP signal change, %; measured here: RFP humanized mutant strains;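 first replicate; 0 = DMSO median and -100 = no signal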
Numbers without * were called inactive; i = inactive; x = not tested or not shown. This is a subset, so the mix of outcomes need not match the whole.

SMILES | E coli growth | ALR H2O2 inh | B2AR ag | HNF4A DNA FP | rRNA inh HTS | rRNA inh HTS OD600 | rRNA inh HTS RFP | FGF22 binding | UCH37 DUB inh
O=C(CN1C(=O)S/C(=C\c2ccccc2)C1=O)NCCCn1ccnc1 | 0.69 | -14 | -12 | -1.7 | 10 | 5 | 2.4 | i | 12
COc1ccc(NC(=O)C(CCCCNC(=O)OC(C)(C)C)NC(=O)OCc2ccccc2)cc1 (stereo not drawn) | 0.73 | 0 | -1 | 0.0 | x | x | x | x | 1.4
CCOC(=O)c1c(C)[nH]c(C(=O)COC(=O)c2cccnc2Cl)c1C | x | 4 | -1 | 8.1 | 14 | 8 | 2.5 | i | x
C#CCOCCOCCOCCNc1nc(N2CCN(C(=O)[C@H]([C@@H](C)CC)n3cc(CCCN=C(N)N)nn3)CC2)nc(N2CCN(C(=O)[C@H](Cc3ccc(O)cc3)n3cc(CCO)nn3)CC2)n1 | x | 4 | 4 | -2.5 | 7 | 5 | 2.0 | i | 5.3
O=C(N/N=C/C=C/c1ccccc1)c1ccc(Br)cc1 | x | -4 | 9 | 0.4 | x | x | x | x | x
COc1ccc(-c2nn(C)c(=O)c3ccccc23)cc1CNC(=O)NC1CCCCC1 | 0.68 | 8 | x | x | x | x | x | x | 3.6
CCC(=O)N1CCc2cc(S(=O)(=O)CCC(=O)Nc3ccc(OC)c(OC)c3)ccc21 | 0.7 | -18 | -14 | -2.4 | 18 | 8 | 3.9 | i | 5.5
CC1(C)CCc2cc(S(=O)(=O)N3CCN(S(=O)(=O)c4c(F)cccc4F)CC3)ccc2O1 | 0.68 | 3 | 6 | -2.9 | 0 | -2 | -4.0 | i | 7.2
CC1CCc2nc(NC(=O)CN3CCN(c4ccccc4)CC3)sc2C1 (stereo not drawn) | 0.71 | 33 | -11 | -0.5 | x | x | x | x | 4.3
OCCC1CN(Cc2cccc3nccnc23)CCN1C1CCCC1 (stereo not drawn) | 0.66 | -4 | 4 | 1.9 | 3 | 3 | 1.3 | i | 2.5
COc1ccc(OC)c(S(=O)(=O)N2CCN(Cc3ccccc3)CC2)c1 | 0.69 | -18 | -1 | -0.1 | 2 | 4 | -1.7 | x | 2.1
CCOC(=O)c1cc(CC)sc1NC(=O)C(c1ccccc1)c1ccccc1 | 0.71 | x | 5 | 1.2 | x | x | x | x | 1.2
Cc1cccc(-n2c(-c3ccccc3)c[nH]c2=S)c1C | 0.67 | 49 | -1 | 0.0 | -4 | -15 | 1.7 | i | 3.2
OCC(O)C(O)C(O)C(O)c1nc2ccccc2[nH]1 (stereo not drawn) | 0.69 | -6 | 1 | 7.6 | 9 | 13 | -1.9 | i | 0.6
CC(=O)NC1(C(F)(F)F)C(=O)Nc2c1c(=O)[nH]c(=O)n2Cc1ccco1 (stereo not drawn) | 0.79 | x | 7 | -1.1 | x | x | x | x | 4.5
COc1cc(NC(=O)c2ccccc2[N+](=O)[O-])c(C(=O)O)cc1OC | 0.68 | -18 | -1 | -1.7 | 5 | 0 | -14 | i | 6.3
Cc1ccc(NC(=O)C(C)OC(=O)/C=C/c2ccccc2)cc1S(=O)(=O)N1CCOCC1 (stereo not drawn) | 0.64 | -1 | -5 | -3.0 | -8 | -7 | 5.3 | i | 1.9
CC(O)(c1ccc(F)c(F)c1)c1nc(-c2cccc(F)c2)cs1 (stereo not drawn) | x | x | x | 0.4 | -63 | -82 | -21 | i | x
Cc1cc2nc(-c3ccc(Cl)cc3)c(Cc3cccc(Cl)c3)n2c(C)c1Br | x | x | x | 5.8 | -12 | -1 | 0.4 | i | x
O=C(N/N=C/c1ccccn1)c1ccc(Cl)c(Cl)c1 | x | 3 | 12 | -2.4 | -59 | -70 | -16 | i | x
Cc1ccc(-n2c(SCc3nc4ccccc4c(=O)[nH]3)nnc2-c2ccccc2O)cc1 | 0.7 | x | -7 | -3.2 | 1 | -17 | -0.2 | i | -3.3
O=C(c1ccccc1)N1CCN(C(=O)c2ccc([N+](=O)[O-])cc2)CC1 | x | -5 | 1 | 0.2 | x | x | x | x | x
CC(NC(=O)c1ccc2c(c1)OCO2)C1CCCO1 (stereo not drawn) | 0.7 | -3 | 1 | -0.1 | 11 | 6 | -5.9 | i | 1.8
Cc1cc(O)c(Oc2cc(C)cc(O)c2O)c(O)c1 | 0.78 | x | 2 | -1.4 | x | x | x | i | 1.6
O=C(NCCCO)C(=O)NCC1OCCCN1S(=O)(=O)c1cccs1 (stereo not drawn) | 0.71 | -6 | 0 | 0.4 | 18 | 13 | -1.5 | i | 4.4
c1ccc(-c2c[n+]3c(n2-c2ccccc2)SCC3)cc1 | 0.59 | -2 | -7 | 1.0 | 20 | 17 | -1.5 | i | 2.8
CCCCCC(=O)N1CCN(S(=O)(=O)c2ccc3c(c2)OCCCO3)CC1 | 0.68 | 2 | 0 | -0.6 | 0 | -8 | 1.8 | i | 2.7
O=C(NC(c1ccccc1)c1ccccc1)N1CCN(CCO)CC1 | 0.65 | 2 | -5 | -1.4 | x | x | x | x | -0.1
Cc1ccc(S/C=C\C(=O)c2ccccc2)cc1 | 0.64 | 4 | 25 | -2.5 | 0 | -1 | -3.9 | i | 3.4
CCCn1c2ccccc2c2nnc(SCC(=O)Nc3cc(C)on3)nc21 | 0.78 | -2 | 5 | -1.1 | x | x | x | x | 0.3
Cc1ccc2nc(C(Cl)(Cl)Cl)nc(N/N=C/c3ccncc3)c2c1 | x | -1 | 1 | 4.2 | 14 | 20 | 3.3 | i | x
COc1ccc(NC(=O)CN(C)C(=O)CCCN2C(=O)c3cccc4cccc(c34)C2=O)cc1 | 0.63 | -15 | 3 | 0.5 | -26 | -25 | -1.6 | i | -16
Cc1cccc(CNC(=O)c2ccc(NC(=O)C3=CSCCO3)cc2)c1 | 0.63 | -6 | -1 | 0.4 | x | x | x | x | -1.2
CCN(CCn1cccn1)Cc1c(C(=O)N2CCCCCCC2)nc2ccc(Cl)cn12 | 0.69 | -15 | 2 | -0.4 | 1 | 0 | 1.6 | i | 0.1
O=C(OCCN=C1NS(=O)(=O)c2ccccc21)c1ccccc1F | 0.7 | -15 | 2 | -2.1 | -2 | 6 | 0.3 | i | 0.9
COc1ccc(CNC(=O)C2CCN(C(=O)c3sccc3-n3cccc3)CC2)cc1 | 0.72 | -12 | -5 | 2.0 | -2 | -2 | 6.0 | i | 4.2
CC(=O)NCC(=O)OCC(=O)c1ccc(C)cc1 | 0.67 | -3 | 4 | 1.6 | x | x | x | x | -2.1
CCCc1cc(=O)oc2c(C)c(OC(C)C(=O)NCc3ccccn3)ccc12 (stereo not drawn) | 0.73 | -3 | -4 | 1.3 | -14 | -12 | -1.6 | i | -30
c1ccc(Cc2nn3c(Cn4cnc5ccccc54)nnc3s2)cc1 | 0.62 | -5 | 17 | -1.1 | x | x | x | x | 2.9
CCOc1ccccc1OCCCC(=O)Nc1cccc(S(=O)(=O)N2CCOCC2)c1 | 0.67 | -1 | 1 | 0.1 | -7 | -21 | 0.0 | i | -0.5
Cc1cccc(-n2nnc3c(=O)n(Cc4ccccn4)cnc32)c1 | 0.7 | -1 | 6 | 2.0 | 12 | 9 | 1.5 | i | 0.5
COc1ccc(C(=O)OCC(=O)N2CCC(C)CC2)cc1S(=O)(=O)N1CCOCC1 | 0.64 | x | -1 | 1.6 | 6 | 9 | -0.2 | i | -3.0
N#Cc1c2n(c(=S)n(-c3ccccn3)c1=O)CCCCC2 | 0.65 | x | 6 | 8.2 | x | x | x | x | 5.1
COCC(C)n1c(C)cc(C(=O)CN2C(=O)NC3(CCCCC3C)C2=O)c1C (stereo not drawn) | 0.73 | 1 | 6 | 0.8 | x | x | x | x | 4.3
O=C(COC(=O)C1CCN(S(=O)(=O)c2cc([N+](=O)[O-])ccc2Cl)CC1)Nc1ncc(Cl)cc1Cl | 0.73 | x | -1 | -16 | x | x | x | x | 1.5

Single records, as listed above. Screens in order: E coli growth | ALR H2O2 inh | B2AR ag | HNF4A DNA FP | rRNA inh HTS | rRNA inh HTS OD600 | rRNA inh HTS RFP | FGF22 binding | UCH37 DUB inh
O=C(COC(=O)C1CCN(S(=O)(=O)c2cc([N+](=O)[O-])ccc2Cl)CC1)Nc1ncc(Cl)cc1Cl across the screens: 0.73 | x | -1 | -16 | x | x | x | x | 1.5
COc1ccc(NC(=O)CN(C)C(=O)CCCN2C(=O)c3cccc4cccc(c34)C2=O)cc1 across the screens: 0.63 | -15 | 3 | 0.5 | -26 | -25 | -1.6 | i | -16
CCOc1ccccc1OCCCC(=O)Nc1cccc(S(=O)(=O)N2CCOCC2)c1 across the screens: 0.67 | -1 | 1 | 0.1 | -7 | -21 | 0.0 | i | -0.5
Cc1ccc2nc(C(Cl)(Cl)Cl)nc(N/N=C/c3ccncc3)c2c1 across the screens: x | -1 | 1 | 4.2 | 14 | 20 | 3.3 | i | x

(listing goes on)
SMILES | E coli growth | ALR H2O2 inh | B2AR ag | HNF4A DNA FP | rRNA inh HTS | rRNA inh HTS OD600 | rRNA inh HTS RFP | FGF22 binding | UCH37 DUB inh
Cc1nc2nc(C)c(CCC(=O)NCCC3=CCCCC3)c(C)n2n1 | 0.72 | -8 | 6 | -2.3 | x | x | x | x | 0.6
CC(C)Cn1c(-c2csc3ccccc23)n[nH]c1=S | 0.61 | 95* | 6 | 1.5 | x | x | x | x | 2.1
COc1cc(CNCc2ccco2)cc(OC)c1O | 0.64 | x | 12 | 2.5 | 1 | 9 | 0.8 | i | 1.5
CCCn1c(SCC(=O)Nc2nnc(-c3ccccc3)s2)nnc1-c1ccccn1 | 0.72 | -4 | -3 | -1.8 | x | x | x | x | 1.1
CCc1ccccc1OCC(=O)Nc1cccc(S(=O)(=O)NC2=NCCCCC2)c1 | 0.68 | -3 | 10 | 4.7 | -7 | -9 | 3.5 | i | 2.2
CN(C(=O)COC(=O)COc1ccc(Cl)cc1)C1CCCCC1 | 0.73 | 7 | 1 | -2.2 | x | x | x | x | -0.4
CCn1c(COc2ccccc2)nnc1SCC(=O)Nc1cc(OC)ccc1OC | 0.72 | -6 | -7 | 0.1 | x | x | x | x | 6.5
CCc1cc(Br)ccc1NC(=S)NCCc1ccccc1 | 0.66 | -4 | 5 | -0.4 | -54 | -78 | -20 | i | 6.7
COc1cc(NC(=O)Cn2cnc3sc(C)c(S(=O)(=O)N4CCOCC4)c3c2=O)cc(OC)c1OC | 0.69 | x | -10 | -0.9 | 4 | 9 | 0.2 | i | -2.2
COc1ccc(C(NC(C)=O)c2cc(Cl)c3cccnc3c2O)cc1 (stereo not drawn) | 0.68 | -16 | -13 | -0.7 | -29 | -34 | -5.1 | i | 0.2
O=C(COC(=O)/C=C/c1ccc2c(c1)OCO2)NC1CC1 | 0.67 | -7 | 8 | -3.3 | 9 | 7 | 1.1 | i | -51
COCCNC(=O)c1cn(C)c2ccc(S(=O)(=O)N3CCCC3)cc2c1=O | 0.71 | -27 | 14 | 2.2 | 20 | 24 | 2.1 | i | 5.8
CCOc1ccc(/C=N/OCC(=O)NCc2ccc3c(c2)OCO3)cc1OC | x | -4 | 0 | -1.3 | x | x | x | x | x
CCOc1ncccc1C(=O)Nc1cccc(S(=O)(=O)NC2=NCCC2)c1 | 0.7 | 0 | 3 | 3.0 | -5 | -6 | -1.9 | i | 3.1
CCOC(=O)c1cc(C(=O)OCC)c(=O)[nH]c1N1CCCCC1 | 0.72 | -7 | 4 | -5.5 | 7 | 6 | 1.4 | x | 11
COC(=O)c1ccc(-c2nc(-c3cccs3)no2)cc1 | 0.76 | -4 | 0 | -1.6 | -5 | -3 | -4.4 | i | 3.5
COc1ccc(C(=O)Nc2ccc(C(=O)N3CCC(C)CC3)cc2)cc1OC | 0.64 | 1 | 7 | 3.0 | -4 | -6 | 2.6 | i | 3.9
